High-throughput results: PubChem, National Center for Advancing Translational Sciences (NCATS)
GLA inh pH 4.5: qHTS Assay for Inhibitors of Human alpha-Galactosidase at pH 4.5. AID 1467, 2008. Alpha-galactosidase A (Homo sapiens), P06280. purified enzyme, 4-MU-alpha-Gal fluorescence, pH 4.5. 230,000 tested, under 10 active. activity change, negative = inhibition, % at 105 µM; inconclusive = small, poorly fitted or top-dose-only inhibition, or a rising curve; inactive = flat fitted curve, though single readings scatter; no compound was filed as active;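 note: 0% = full activity with enzyme and -100% = basal without enzyme; dose as in the result columns while the protocol names 77 µM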
Target sequence (P06280 whole entry, looked up): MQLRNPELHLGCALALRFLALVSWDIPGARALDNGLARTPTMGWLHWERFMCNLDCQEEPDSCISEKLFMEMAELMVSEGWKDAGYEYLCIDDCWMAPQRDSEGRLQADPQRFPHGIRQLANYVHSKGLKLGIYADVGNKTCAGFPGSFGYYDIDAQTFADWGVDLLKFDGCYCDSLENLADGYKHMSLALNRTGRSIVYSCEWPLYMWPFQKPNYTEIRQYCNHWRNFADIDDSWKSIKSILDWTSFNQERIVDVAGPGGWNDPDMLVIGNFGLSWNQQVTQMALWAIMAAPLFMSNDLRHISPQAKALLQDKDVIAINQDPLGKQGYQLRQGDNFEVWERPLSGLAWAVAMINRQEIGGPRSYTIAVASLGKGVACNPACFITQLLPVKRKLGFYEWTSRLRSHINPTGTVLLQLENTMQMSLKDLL
Rango complex inh: qHTS Assay for Inhibitors of Rango (Ran-regulated importin-beta cargo) - Importin beta complex formation | Importin subunit beta-1 (Homo sapiens), Q14974 | Rango CFP/YFP FRET sensor + importin beta, 45 min | Potency, µM (top dose mostly 92.2 µM), inactives show at the highest dose inhibition of complex formation | 0.031% of 340,000 active; active = rising FRET ratio curve, often small or poorly fitted; inconclusive = mostly compound fluorescence or quenching in the first reads; inactive = flat curves in all reads;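 note: potency is the fitted concentration of half-maximal effect; 0% = DMSO wells and 100% = buffer wells lacking importin beta; nearly all actives have a fitted effect of over 15% in size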
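FRET biosensor (snurportin 1 IBB flanked by EYFP and cerulean), 50 nM, with compound 5 min, then 0.125 microM importin beta in PBS, 1 mM DTT, 0.02% Tween-20, 0.1% BSA. CFP/YFP ratio read after 45 min at room temperature; pre-read flags interference.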
miR-21 reporter: qHTS Assay for Modulators of miRNAs and/orActivators of miR-21; HeLa miR-21 FLuc reporter, luciferase, 48 h; Potency, µM (highest dose often 38.3 µM), without a hit: top-dose reporter change, positive = more light; 340,000 tested, under 10 active; AID 2288, 2010; active = well fitted rising curve with a large enough effect; inconclusive = small, poorly fitted or top-dose-only effect; inactive = no such curve, though single readings can be large or run the other way;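 note: % of control where 0% means no effect; miR-21 action dims this reporter so a rising signal means less miR-21 action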
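HeLa cells stably expressing CMV-driven firefly luciferase with a downstream miR-21 binding sequence, endogenously expressing miR-21, were treated with titrations (up to about 40uM final) for 48 hours at 37 degree Celsius. Luciferase luminescence was read after lysis.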
Rango release inh: qHTS Assay for Inhibitors of RanGTP induced Rango (Ran-regulated importin-beta cargo) - Importin beta complex dissociation | Snurportin-1 (Homo sapiens) + GTP-binding nuclear protein Ran (Homo sapiens) + Importin … | Biochemical FRET Rango-importin beta, RanGTP-induced dissociation | Potency, µM (highest dose often 46.1 µM), without a hit: at the top dose activity change, negative = inhibition | 0.071% of 340,000 active | AID 540253, 2011; active means falling FRET ratio curve, often poorly fitted, with flat reads before Ran was added; inconclusive means other falling curves, or compound fluorescence or quenching; inactive means flat or rising ratio curve;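 note: potency is the fitted concentration of half-maximal effect; % of control where 0% means no effect; nearly all actives have a fitted effect of over 45% in size; -100% = wells without RanGTP and RCC1; the record marks most hits as doubtful in a second field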
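Quantitative HTS using a FRET biosensor: 0.1 uM Rango, 0.25 uM importin beta, 0.6 uM Ran, 2 mM GTP, 0.2 uM RCC1 final, PBS with DTT, Tween-20 and BSA. Post-read taken 45 min after Ran addition.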
Active calls of the source: *; ? = inconclusive; / = no result given; [ ] = dose if it differs, or a comment.

smiles | GLA inh pH 4.5 | miR-21 reporter | Rango release inh | Rango complex inh
CN(C)S(=O)(=O)c1ccc(NC(=O)N2CCN(c3cccc(C(F)(F)F)c3)CC2)cc1 | -21 | 22% | -18% | -3.6%
Cc1ccc(S(=O)(=O)N2C(=O)CCC2C(=O)O/N=C(\N)c2ccccc2)cc1 (stereo not given) | / | 0% | -10% | -1.1%
CN(C)c1cccc(C(=O)OC(C(=O)Nc2ccc(Cl)cc2C(F)(F)F)c2ccccc2)c1 (stereo not given) | 3 | 1% | 10% | 2.9%
Cc1ccc(C)c(Cn2c(=O)n(CCC(=O)NCc3ccco3)c(=O)c3ccccc32)c1 | -8 | -6% | -27% | -0.9%
NC(=O)c1ccc(NCCc2ccccc2)c([N+](=O)[O-])c1 | 2 | -42% | 0% | -1.1%
O=C(c1ccc(Cl)c(Cl)c1)N1CCOCC1 | -1 | -3% | -6% | 3.8%
CSc1sc(-c2nnc(SCC(=O)Nc3ccc(Cl)cc3)n2C)c2c1C=CCC2 | -2 | -1% | 2% | -7.8%
C/C(=N\NC1=N[C@H]2CS(=O)(=O)C[C@H]2S1)c1ccccc1 | 2 | 1% | 0% | -1.7%
Cc1cc(C)c(C)c(S(=O)(=O)NCC(=O)Nc2ccccc2F)c1C | / | -4% | 1% | 1.2%
CCN1CCN(C(=O)Nc2cc(Cl)ccc2OC)CC1 | -10 | -2% | -5% | -1.8%
O=C(CC12CC3CC(CC(C3)C1)C2)Nc1nncs1 | / | 1% | -4% | 0.1%
CCOC(=O)c1ccc(-n2c(C)nc3c(cnn3-c3ccccc3C)c2=O)cc1 | 2 | -4% | -10% | -2.7%
CCOC(=O)C1=C(COC(=O)/C=C/c2cc(OC)c(OC)c(OC)c2)NC(=O)NC1C (stereo not given) | / | 4% | 6% | -1.7%
COc1ccc(N(C(=O)c2snc(C(N)=O)c2N)C(C(=O)NC2CCCC2)c2ccc(F)cc2)c(OC)c1 (stereo not given) | / | -8% | -9% | -4.6%
Cn1c(NCC(O)c2ccccc2)nc2c1c(=O)n(Cc1ccc(Cl)cc1)c(=O)n2C (stereo not given) | -2 | 18% | 10% | -1.7%
O=C(NCCN1CCOCC1)c1ccc(CSc2nc3ccncc3n2Cc2ccc(F)cc2)cc1 | 1 | 0% | 9% | -1.3%
Cc1ccc(C(=O)c2nc(C(=O)NCCO)nc3ccccc23)cc1 | / | / | -7% | -2.1%
FC(F)Oc1ccc(-c2c[n+]3c(n2-c2ccccc2)CCCCC3)cc1 | -2 | 19% | 1% | -0.6%
CC(=O)N1N=C2/C(=C/c3ccccc3)CCCC2C1c1ccccc1 (stereo not given) | -2 | -47% | -9% | -0.4%
O=C(Nc1oc2ccc(Cl)cc2c(=O)c1-c1ccc(F)cc1)c1ccco1 | / | -8% | -10% | 0.1%
O=C(c1cccc(COc2ccc(Cl)cc2Cl)c1)N1CCN(c2ccccn2)CC1 | 2 | -41% | 10% | -0.7%
O=C(CN1C(=O)S/C(=C\c2ccc(O)c([N+](=O)[O-])c2)C1=O)Nc1ccc(N2CCOCC2)cc1 | / | 0% | ? | ?
Nc1cc(C(=O)O)ccc1Nc1ccc(F)c(F)c1 | 0 | -7% | -6% | 6.0%
CCCCCOc1ccc(C(=O)N(Cc2ccco2)C2CCS(=O)(=O)C2)cc1 (stereo not given) | ? | 8% | 1% | -2.2%

Given with values ahead of the structure: entries from further up.
| GLA inh pH 4.5 | miR-21 reporter | Rango release inh | Rango complex inh | compound |
| --- | --- | --- | --- | --- |
| -2 | 18% | 10% | -1.7% | Cn1c(NCC(O)c2ccccc2)nc2c1c(=O)n(Cc1ccc(Cl)cc1)c(=O)n2C (stereo not given) |
| 1 | 0% | 9% | -1.3% | O=C(NCCN1CCOCC1)c1ccc(CSc2nc3ccncc3n2Cc2ccc(F)cc2)cc1 |
| / | / | -7% | -2.1% | Cc1ccc(C(=O)c2nc(C(=O)NCCO)nc3ccccc23)cc1 |

Following part.
smiles | GLA inh pH 4.5 | miR-21 reporter | Rango release inh | Rango complex inh
CC(C)c1ccc(S(=O)(=O)N2CCN(C(C)C(=O)N3CCCC3)CC2)cc1 (stereo not given) | / | / | 1% | -0.4%
CCOc1ccc(S(=O)(=O)N2CCN(C(=S)NCc3ccco3)CC2)cc1 | -2 | -1% | -8% | -3.0%
COc1ccc(CCn2c(C)c(C(C)=O)c3cc(OC(=O)c4ccco4)ccc32)cc1OC | -6 | -2% | 20% | -2.2%
N=C1c2ccccc2CN1NC(=O)CC12CC3CC(CC(C3)C1)C2 | 2 | -5% | 20% | 6.4%
CCN1CCN(C(=O)c2cn(CCOC)c(=O)c3c2c2ccccc2n3C)CC1 | ? | -7% | -1% | -3.5%
COc1ccc(Cl)c(NC(=O)Cn2nnc(-c3ccccc3N)n2)c1 | -3 | -1% | 0% | 8.1%
CCN(CC)C(=O)C(C)OC(=O)COc1ccc(Cl)cc1Cl (stereo not given) | -5 | 0% | 0% | 0.4%
COc1cc(OC)c(NC(=O)c2ccco2)cc1Cl | -1 | -5% | 13% | -3.5%
Cc1cc(-c2cccc(Br)c2)c(C#N)c(N)n1 | -11[21.1 µM] | -1% | ? | ?
CCc1nnc(NC(=O)CSc2nnc(C)c(=O)n2N)s1 | / | 4% | -24% | 3.8%
Cc1ccnc(NS(=O)(=O)c2ccc(N3C(=O)Nc4ccccc4N3O)cc2)c1 | 5 | 4% | 19% | 0.6%
O=C(NCCOC(=O)c1ccc(C(=O)OCCNC(=O)c2cccnc2)s1)c1cccnc1 | 6 | 4% | -6% | 7.3%
CC(C)(C)OC(=O)N(CCc1ccccc1)Cc1cccc(OCc2cccc(NC(=O)c3ccccc3)c2)c1 | / | / | -13% | 0.1%
COc1ccc(NC(=O)CCCc2ccc(OC)c(C)c2)cc1 | / | -1% | -4% | -0.7%
O=C(CSc1ccccn1)Nc1ccc(Cl)cn1 | -11 | -35% | -4% | 0.0%
Cn1[nH]c(CSc2ccc(Cl)cc2)cc1=O | -3 | 1% | 0% | -3.2%
CCOC(=O)C1CCN(C(=O)c2cc(S(=O)(=O)N3CCc4ccccc43)ccc2OC)CC1 | / | / | -5% | 2.0%
CC1CCCCC1NC(=S)NC(=O)c1sc2ccccc2c1Cl (stereo not given) | 0 | -20% | -5% | ?
CCc1ccc(NC(=O)Cn2c3[n+](c4c(F)c(F)ccc42)CCCCC3)cc1 | 17 | 13% | 17% | -1.2%
CN(C)C(=O)c1cn(-c2ccccc2)nc1-c1cc2ccccc2oc1=O | -3 | 0% | -4% | -2.7%
CC(C)(C)NS(=O)(=O)c1ccc(CCC(=O)O)cc1 | -8 | 1% | -6% | 5.3%
CC(=O)Oc1ccc2c(=O)oc(-c3ccccc3)nc2c1 | / | -3% | 0% | -1.0%
Cc1cccc(NC(=O)Nc2ccccc2)n1 | / | -48% | 0% | 8.1%
O=C(N/N=C/c1ccoc1)c1cc(Br)ccc1O | / | -23% | 0% | -3.3%
CN(C)c1nc(N2CCOCC2)nc(N(c2ccccc2)c2ccccc2)n1 | 3 | -2% | -10% | -0.2%
COCCn1c(SCC(=O)NCc2ccco2)nc2cccnc21 | 9 | -3% | -9% | 3.4%
CN(CC(=O)NCc1ccc(F)cc1)CC(=O)Nc1ccc(Cl)c(C(F)(F)F)c1 | / | 22% | -5% | -3.1%
CC(OC(=O)c1ccc(Cl)cc1)C(=O)NCc1ccc2c(c1)OCO2 (stereo not given) | / | / | 0% | -0.9%
C/C(=N\NC(=O)C(O)c1ccccc1)c1ccc(C)s1 (stereo not given) | / | / | -13% | 7.3%
Cc1oc(C(=O)O)cc1CSCc1cc(C(=O)O)c(C)o1 | -5 | -13% | -9% | -1.1%
Cc1c(Cl)cccc1-n1c(SCC(=O)NCc2cccs2)nnc1-c1ccncc1 | -9 | 1% | 2% | 3.1%
CN1CCN(/N=C/c2ccc(-c3ccc([N+](=O)[O-])cc3Cl)o2)CC1 | -1 | -13% | 2% | 7.0%
Cc1ccc(S(=O)(=O)N2[C@@H](c3ccccc3F)C(C(=O)O)=CC[C@H]2c2ccc(Cl)cc2)cc1 | / | / | -1% | ?
Cc1c(-c2ccn[nH]2)cc(NC(=O)c2ccc(Cl)cc2)c(=O)n1N | 8 | 4% | -8% | 0.1%
Cc1ccccc1CN1CCNC(=O)C1CC(=O)NC1CCCCCCC1 (stereo not given) | / | -2% | 0% | -4.1%
COc1ccc(NC(=O)CSCC(=O)Nc2sccc2C#N)cc1 | / | / | -8% | -0.2%
CCCn1nnnc1SCC(=O)Nc1ccc(F)cc1 | 10 | -7% | 17% | 1.6%
C=CCOc1ccc(C[C@H](N)C(=O)NC[C@H]2O[C@@H](n3cnc4c(N)ncnc43)[C@H](O)[C@@H]2O)cc1 | / | / | -5% | -5.0%
O=C1C2C3C=CC(C4CC34)C2C(=O)N1c1cccc2ccccc12 (stereo not given) | / | -16% | 15% | -2.0%
COC(=O)CC1=NN(c2ccccc2)C(=O)/C1=C\c1ccc(OC)cc1 | -8 | -1% | -10% | 2.6%
Cc1ccc(C(=O)Nc2nc3ccc(S(C)(=O)=O)cc3s2)cc1C | / | -10% | 7% | 0.9%
CN(C)c1ccc(NC(=O)C(=O)NCCOc2ccccc2)cc1 | -1 | -1% | 7% | 1.4%
Cc1ccccc1NC(=S)NCC1CCN(C(C)c2ccccc2)C1 (stereo not given) | -10 | -5% | 0% | -2.1%
CCCCOc1ccc(C(O)C(CN2CCOCC2)c2ccccc2)cc1 (stereo not given) | -14 | 4% | 18% | 0.6%
COc1ccc(C(=O)Nc2ccc(Br)cn2)cc1S(=O)(=O)N1CCOCC1 | / | / | 2% | 1.6%
O=C(NNC(=O)C1CCN(S(=O)(=O)c2ccc(Cl)cc2)CC1)c1ccncc1 | 2 | 1% | -3% | 2.8%
CC(C)CCn1c(CN2CC(C)OC(C)C2)nc2c1c(=O)n(C)c(=O)n2C (stereo not given) | / | 1% | -4% | -1.1%
CCn1c(COc2ccc(Cl)cc2)nnc1SC1CCc2ccccc2C1=O (stereo not given) | -4 | -6% | 5% | ?
O=c1c2ccccc2nc(-c2ccco2)n1/N=C/c1ccccc1O | 0 | -17% | ? | ?
O=C(NC1CCN(Cc2ccccc2)CC1)c1ccc2c(c1)OCCCO2 | -1 | -17% | 0% | 0.5%
O=C(CSc1ncnc2ccccc12)Nc1ccc2c(c1)OCCO2 | -27 | -26% | 15% | -2.8%
CCN(CC(=O)Nc1ccc2c(c1)OCCO2)C(=O)/C=C/c1ccc(OC)c(OC)c1 | / | / | -1% | 5.4%
Nc1ccccc1C(=O)NC12CC3CC(CC(C3)C1)C2 | / | -13% | 2% | 3.4%
O=C(NC1CC(=O)N(c2cccc(F)c2)C1)C(=O)c1c[nH]c2ccccc12 (stereo not given) | / | / | -4% | -0.9%
Cc1noc(C)c1COc1ccccc1C(=O)N1CCN(S(=O)(=O)c2cccc(Cl)c2)CC1 | / | / | 22% | 3.4%

Single records, as listed above. Values in the order: GLA inh pH 4.5	miR-21 reporter	Rango release inh	Rango complex inh
O=C(CSc1ncnc2ccccc12)Nc1ccc2c(c1)OCCO2 reads -27	-26%	15%	-2.8%
O=C(NC1CC(=O)N(c2cccc(F)c2)C1)C(=O)c1c[nH]c2ccccc12 (stereo not given) reads /	/	-4%	-0.9%
Cc1noc(C)c1COc1ccccc1C(=O)N1CCN(S(=O)(=O)c2cccc(Cl)c2)CC1 reads /	/	22%	3.4%

Only part of the results is shown; count on the stated rates, not on these rows.
